Screening results deposited in PubChem by National Center for Advancing Translational Sciences (NCATS).
Methyltransferases: Primary Screen for Target Class Profiling of Small Molecule Inhibitors of Methyltransferases; AID 1745853, 2022; calls only at 40 µM; actives 3.9% (n = 25,000); purified enzyme, MTase-Glo SAH luminescence; stronger effect = lower value; active = -50% or lower on at least one of six enzymes; inconclusive = the cases between; inactive = as a rule above -30% on all six;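 note: enzymes were COMT GAMT GNMT HNMT NNMT and PNMT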
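Each enzyme was assayed with SAM and its substrate. SAH formation detected by MTase-Glo luminescence; single-point 40 uM screen[…].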
Calls only; i = inactive; ? = inconclusive; + = active, no number. % is set by controls: 0 for no effect and ±100 for the full control effect. Only part of the results is shown; the hit share may differ from the screen's.

SMILES	Methyltransferases
Cn1c(=O)n(C)c2cc(S(=O)(=O)Nc3ccc(N4CCOCC4)cc3)c(Cl)cc21	i
O=C(CCn1ccc2cc(S(=O)(=O)N3CCCCC3)ccc21)NCCc1cccs1	i
COc1ccc(C2(O)CCC(N3CC[C@@H](NC(=O)CNC(=O)c4cccc(C(F)(F)F)c4)C3)CC2)cn1 (stereo partly drawn)	+
C/C=C1/CC2C(=O)Nc3cc(O)c(OC)cc3C(=O)N2C1 (stereo not drawn)	i
O=C(Cn1c(=O)oc2cc(S(=O)(=O)N3CCCC3)ccc21)NCc1ccc(Cl)cc1	i
Cc1[nH]c2ccccc2c1CCNC(=O)c1cccs1	?
COc1ccc(CNC(=O)c2ccc(CN3C(=O)NC4(CCOCC4)C3=O)cc2)cc1	i
Cn1c(=O)n(C)c2cc(S(=O)(=O)N3CCN(C4CCCCC4)CC3)ccc21	+
O=c1c2ccccc2n2c(SCc3ccccc3F)nnc2n1Cc1ccc(F)cc1	i
CCOc1ccccc1CN1C(=O)c2cc3sccc3n2CC1(C)C(=O)NC1CCC(C)CC1 (stereo not drawn)	i
OCc1ccccc1O[C@@H]1O[C@H](CO)[C@@H](O)[C@H](O)[C@H]1O	i
CC(=O)Nc1cccc(-c2ccnc(-c3nnc(C)n3Cc3ccccc3)c2)c1	i
Cn1c(=O)n(C)c2cc(S(=O)(=O)N(Cc3ccccc3)C(=O)c3ccncc3)ccc21	i
CC(C)Cn1c(=O)c2ccc(C(=O)NC3CCCC3)cc2n2c(=O)n(Cc3ccccc3Cl)nc12	i
CC1(C(=O)NC2CCCCCCC2)Cc2ccccc2C(=O)N1C1CCCCC1 (stereo not drawn)	i
CN1CCN(S(=O)(=O)c2ccc(-c3cnc(N)c(C(=O)Nc4cccnc4)n3)cc2)CC1	i
CCCn1nc(CNC(=O)Cc2cccc(F)c2)c2ccccc21	i
O=C(CCn1ccc2cc(S(=O)(=O)N3CCCC3)ccc21)NCc1ccc2c(c1)OCO2	i
COc1cccc(CN2C(=O)c3cc4ccccc4n3CC2(C)C(=O)NCc2ccccc2)c1 (stereo not drawn)	i
O=S(=O)(c1ccc2[nH]c3c(c2c1)CCCC3)N1CCN(Cc2ccccc2)CC1	i
Cc1ccc(CN2CCCc3nc(C)nc(-c4ccc(O)cc4)c3C2)cc1	i
CC1(C(=O)NC2CCCCCCC2)Cn2c(cc3sccc32)C(=O)N1CCN1CCCCCC1 (stereo not drawn)	i
CN1C(=O)[C@H]2CN(Cc3cn[nH]c3-c3ccc(F)cc3)C[C@H]2C1=O	i
CC(N)(Cc1ccc(O)cc1)C(=O)O (stereo not drawn)	i
COc1cccc(CN2C(=O)c3cc4oc(C)cc4n3CC2(C)C(=O)NC2CCCCC2)c1 (stereo not drawn)	i

The listing continues.
SMILES	Methyltransferases
O=C(C1CCCN(c2cnn(Cc3ccccc3)c(=O)c2)C1)N1CCCN(c2ncccn2)CC1 (stereo not drawn)	i
CC1OC(O[C@H]2CC[C@@]3(C)C(CC[C@]4(C)C3CC=C3C5CC(C)(C)CC[C@]5(C(=O)OC5OC(CO)C(OC6OCC(OC7OCC(O)C(O)C7O)C(O)C6O)C(O)C5O)CC[C@]34C)C2(C)C)C(O)C(O)C1OC1OC(CO)C(O)C(OC2OC(CO)C(O)C(O)C2O)C1O (stereo partly drawn)	i
O[C@@H]1C[C@@H](c2nnc3n2CCN(C2CCCCC2)C3)N(Cc2cccnc2)C1	i
O=C(c1ccccc1)N1CCCC(C(=O)N2CCC(c3nc4ccncc4[nH]3)C2)C1 (stereo not drawn)	i
COc1ccc(N2C(=O)c3cc4ccccc4n3CC2(C)C(=O)NC2CCCC2)cc1 (stereo not drawn)	i
COc1ccccc1CNC(=O)CCc1nnc2n(Cc3ccc(Cl)cc3)c(=O)c3ccccc3n12	i
Cn1c(=O)c2ccc(C(=O)NC3CCCCC3)cc2n2c(=O)n(Cc3ccc(F)cc3)nc12	i
CCCS(=O)(=O)N1C[C@@H](COC)[C@H](c2nc(C)no2)C1	i
COCCCN1CC2(CCC1=O)CCN(C(=O)Nc1ccccc1F)CC2	i
C[N+]1(C)C2CC(OC(=O)[C@H](CO)c3ccccc3)CC1C1OC12 (stereo partly drawn)	i
COc1ccc2c(c1)C(C(=O)Nc1ccc(C)c([S+](=O)([O-])N3CCOCC3)c1)=CC(C)(C)CO2	i
O=C(CCn1ccc2cc(S(=O)(=O)N3CCCCC3)ccc21)N1CCN(c2ccc(F)cc2)CC1	i
CC1=Nc2cc(C(=O)NCCCN(C)C)ccc2Sc2ccc(F)cc21	?
COC(=O)c1ccc(OC)c(CN2CC(=O)N(Cc3ccc(F)cc3)c3ccccc3S2(=O)=O)c1	i
C=C(C)[C@@H]1CC[C@]2(CO)CC[C@]3(C)[C@H](CC[C@@H]4[C@@]5(C)CC[C@H](O)C(C)(C)[C@@H]5CC[C@]43C)[C@@H]12	i
Cc1noc(C)c1-c1cc2c(cc(C)n2CCN(C)C)c(Nc2ccncn2)n1	+
CN1C(=O)c2cc(C(=O)NCCN3CCCCC3)nn2CC1(C)C(=O)NC1CCCCCC1 (stereo not drawn)	i
O=C(NC1CCN(Cc2cccc(-c3cccs3)c2)CC1)c1cccc(Cl)c1	i
CCN(CC)C(=O)c1cc2c(s1)CCC(C(=O)O)C2 (stereo not drawn)	i
CC(C)OCCCNC(=O)C1(C)Cn2c(cc3ccccc32)C(=O)N1Cc1ccc2c(c1)OCO2 (stereo not drawn)	i
O=C(CCn1ccc2cc(S(=O)(=O)N3CCCCC3)ccc21)N1CCCCC1	i
CCc1ccc(CNC(=O)CCn2ccc3cc(S(=O)(=O)N4CCCCC4)ccc32)cc1	i
O=C(CCc1nnc2n(Cc3ccccc3Cl)c(=O)c3ccccc3n12)N1CCN(C2CCCCC2)CC1	i
COC(=O)c1ccc(NCC2=CC(C)(C)COc3ccc(OC)cc32)cc1	i
Cc1ccc(C)c(NS(=O)(=O)c2cc3[nH]c(=O)[nH]c3cc2C)c1	i

Pulled by structure from the list above:
SMILES	Methyltransferases
O=C(CCc1nnc2n(Cc3ccccc3Cl)c(=O)c3ccccc3n12)N1CCN(C2CCCCC2)CC1	i
C=C(C)[C@@H]1CC[C@]2(CO)CC[C@]3(C)[C@H](CC[C@@H]4[C@@]5(C)CC[C@H](O)C(C)(C)[C@@H]5CC[C@]43C)[C@@H]12	i
COC(=O)c1ccc(NCC2=CC(C)(C)COc3ccc(OC)cc32)cc1	i
Cc1ccc(C)c(NS(=O)(=O)c2cc3[nH]c(=O)[nH]c3cc2C)c1	i
COc1ccc2c(c1)C(C(=O)Nc1ccc(C)c([S+](=O)([O-])N3CCOCC3)c1)=CC(C)(C)CO2	i

(more compounds)
SMILES	Methyltransferases
CN(Cc1cccn1C)C(=O)c1ccccc1F	i
C[C@@H]1O[C@@H](O[C@H]2[C@H](O)[C@@H](O[C@@H]3O[C@H](CO)[C@@H](O)[C@H](O[C@@H]4O[C@H](CO)[C@@H](O)[C@H](O)[C@H]4O)[C@H]3O)[C@H](O[C@H]3CC[C@@]4(C)C(=CC[C@@H]5C4CC[C@@]4(C)C5C[C@@H]5OC6(CC[C@@](C)(CO[C@@H]7O[C@H](CO)[C@@H](O)[C@H](O)[C@H]7O)O6)[C@@H](C)[C@@H]54)C3)O[C@@H]2CO)[C@H](O)[C@H](O)[C@H]1O (stereo partly drawn)	i
Cc1cccc(S(=O)(=O)N2[C@@H]3CC[C@H]2CC(NC(=O)c2ccncc2)C3)c1 (stereo partly drawn)	i
O=C(CCNc1c(-c2cccc(F)c2)nc2cnccn12)NCc1ccc(Cl)cc1	i
CCC(C)/C=C(C)/C=C/C1=CC2=C(Cl)C(=O)C(C)(O)C(=O)C2(O)C(OC)O1 (stereo not drawn)	i
Cc1ccc(Cn2nc3n(C)c(=O)c4ccc(C(=O)NC5CCCCC5)cc4n3c2=O)cc1	i
CCOCCCN1C(=O)c2cc(-c3ccccc3)nn2CC1(C)C(=O)NCc1ccccc1OC (stereo not drawn)	i
CC(C)(Oc1nn(CCN2CCOCC2)c2ccccc12)C(=O)NCc1ccncc1	i
CC1(C)C(=O)N(CCN2CCC(C(=O)c3ccc(F)cc3)CC2)c2ccccc21	i
CC(C)OCCCNC(=O)C1CCCN(S(=O)(=O)c2cn(C)cn2)CCC(=O)NCC1 (stereo not drawn)	i
CC(=O)NC1CC2(CCN(Cc3ccc(O)cc3)CC2)c2ccccc21 (stereo not drawn)	+
Cc1cc(-c2nc3ncccc3o2)ccc1NC(=O)COc1ccc(C(C)(C)C)cc1	?
CC(C)c1ccc(NS(=O)(=O)c2ccc3[nH]c(=O)[nH]c3c2)cc1	i
O=C(Nc1ccc(F)c(Cl)c1)C1=NO[C@@H]2CN(CCc3ccccc3)C[C@H]12	i
NC(=O)C(O[C@@H]1O[C@H](CO[C@@H]2O[C@H](CO)[C@@H](O)[C@H](O)[C@H]2O)[C@@H](O)[C@H](O)[C@H]1O)c1ccccc1 (stereo partly drawn)	i
COc1ccc(CN2C(=O)COC[C@H]2C(=O)N2CCc3ccccc3C2)c(OC)c1	i
CC(C)(C=O)Cc1cc(C(C)(C)C)c(O)c(C(C)(C)C)c1	i
COc1ccc2c(c1)c(NC(C)=O)c1n2CC(C)(C(=O)NC2CCCCC2)N(CCC(C)C)C1=O (stereo not drawn)	i
Cc1cccc(N2C(=O)c3cc(C4CC4)nn3CC2(C)C(=O)NC2CCCCCC2)c1C (stereo not drawn)	i
CC1OC(OC2C(C)OC(OC3C(O)C(CO)OC(O[C@H]4CC[C@@]5(C)C(CC[C@]6(C)C5CC=C5C7[C@@H](C)[C@H](C)CC[C@]7(C(=O)O)CC[C@]56C(=O)O)C4(C)C)C3O)C(O)C2O)C(O)C(O)C1O (stereo partly drawn)	i
CCCn1c(=O)c2ccc(Cl)cc2n2c(SCc3cccc(OC)c3)nnc12	i
COCCCN1C(=O)c2cc3sccc3n2CC1(C)C(=O)NC1CCCCCC1 (stereo not drawn)	i
CC(O)C(O)[C@H]1CNc2nc(N)[nH]c(=O)c2N1 (stereo partly drawn)	?
CC1CCCCN1CCCNC(=O)c1cc2c(s1)CN(C1CCCC1)C2 (stereo not drawn)	+
COc1ccc(CN2C(=O)c3cc4ccccc4n3CC2(C)C(=O)NCc2ccccc2OC)cc1 (stereo not drawn)	i

Rewritten field by field: four of the compounds above.
> C[C@@H]1O[C@@H](O[C@H]2[C@H](O)[C@@H](O[C@@H]3O[C@H](CO)[C@@H](O)[C@H](O[C@@H]4O[C@H](CO)[C@@H](O)[C@H](O)[C@H]4O)[C@H]3O)[C@H](O[C@H]3CC[C@@]4(C)C(=CC[C@@H]5C4CC[C@@]4(C)C5C[C@@H]5OC6(CC[C@@](C)(CO[C@@H]7O[C@H](CO)[C@@H](O)[C@H](O)[C@H]7O)O6)[C@@H](C)[C@@H]54)C3)O[C@@H]2CO)[C@H](O)[C@H](O)[C@H]1O (stereo partly drawn)
  Methyltransferases: i
> Cc1cccc(S(=O)(=O)N2[C@@H]3CC[C@H]2CC(NC(=O)c2ccncc2)C3)c1 (stereo partly drawn)
  Methyltransferases: i
> O=C(CCNc1c(-c2cccc(F)c2)nc2cnccn12)NCc1ccc(Cl)cc1
  Methyltransferases: i
> CCC(C)/C=C(C)/C=C/C1=CC2=C(Cl)C(=O)C(C)(O)C(=O)C2(O)C(OC)O1 (stereo not drawn)
  Methyltransferases: i

The listing continues.
SMILES	Methyltransferases
CC(=O)OC1[C@H]2[C@@H](C[C@@H](C)[C@@H]3C=CC(=O)[C@@]13C)OC(=O)[C@@H]2C (stereo partly drawn)	i
CC1(C(=O)NC2CCCCCCC2)Cn2c(ccc2-c2ccccc2)C(=O)N1Cc1ccccc1 (stereo not drawn)	i
CCN(CC)c1nc2c(S(=O)(=O)c3ccc(C(C)C)cc3)nnn2c2ccccc12	i
CC1(C(=O)NC2CCCCC2)Cn2nc(-c3cccs3)cc2C(=O)N1Cc1cccc(F)c1 (stereo not drawn)	i
CC1(C(=O)NC2CCCCC2)Cn2c(cc3occc32)C(=O)N1CCN1CCOCC1 (stereo not drawn)	i
CC(C)=CCC/C(C)=C/CC/C(C)=C/CC[C@]1(C)CCc2cc(O)cc(C)c2O1	i
CC(C)CCN1C(=O)c2cc3ccccc3n2CC1(C)C(=O)NC1CCCCCC1 (stereo not drawn)	i
COC(=O)CCNC(=O)N1Cc2c(sc3c2CCCC3)-n2cccc2C1c1cccc(C)c1 (stereo not drawn)	i
CC1(C)CCC(NC(=O)[C@@H](N)CCC(=O)O)CC1	i
CC(C)(C)c1cc2n(n1)CC(C)(C(=O)NC1CCCCCC1)N(Cc1ccc(F)cc1)C2=O (stereo not drawn)	i
CCOC(=O)c1cc2n(n1)CC(C)(C(=O)NCCC(C)C)N(c1cccc(C)c1C)C2=O (stereo not drawn)	i
Cc1cccc(OCC(=O)N2CCCC(c3[nH]ccc3C(N)=O)C2)c1 (stereo not drawn)	i
Cc1ccc(C)c(CNC(=O)c2cc3n(n2)CC(C)(C(=O)NCc2ccc(F)cc2)N(C)C3=O)c1 (stereo not drawn)	i
CCCN1C(=O)c2nc3ccccc3n2CC1(C)C(=O)NC1CCCC1 (stereo not drawn)	i
O=S(=O)(c1ccc(Cl)cc1)c1nnn2c1nc(NCCc1ccccc1)c1ccccc12	i
COc1ncccc1CNC[C@H]1O[C@@H]2C[C@@H](CC(=O)N3CCOCC3)O[C@@H]2[C@@H]1O	i
C/C1=C\CC[C@]2(C)O[C@@H]2[C@H](O)[C@H](C(C)C)[C@H](OC(=O)/C=C/c2ccccc2)C1	i
Cn1c(=O)c2ccc(C(=O)NC3CCCCC3)cc2n2c(SCC(=O)NC3CCCCC3)nnc12	i
O=C(NCCN1CCCCC1)c1cc2n(n1)CCCN(Cc1ccc(Cl)cc1)C2=O	i
O=C(c1ccc(C(F)(F)F)cc1)N1CC2CC(C1)[C@H]1CCCC(=O)N1C2 (stereo partly drawn)	i
COc1ccc(-c2cc3n(n2)CC(C)(C(=O)NC2CCCCC2)N(Cc2cccnc2)C3=O)cc1 (stereo not drawn)	i
Nc1nc(-c2ccc(Cl)c(Cl)c2)c(-c2ccncc2)s1	?
COc1ccc(F)c(-c2nc(CN(C)CC3(CO)CC3)c(C)o2)c1	i
CCOc1ccc(NC(=O)N2Cc3c(sc4c3CCCC4)-n3cccc3C2c2ccc(F)cc2)cc1 (stereo not drawn)	i
O=C(O)c1cnc(N2CCCCC2)nc1-c1ccncc1	i
